Assay outcomes: PubChem BioAssay, SRMLSC
H5N1 antiviral – MDCK cell protection from H5N1 avian flu; cytopathic effect, luminescence, 72 h; stronger effect = higher value; no value below 0 was filed and about half of the inactive calls have no number; reference of the scale not given here; actives 0.07% (n = 96,000); AID 740; inhibition, % at 50 µM; in the data active means inhibition above about 25%
The depositor's hits bear a star; i = inactive. Some of the compounds tested (hit frequency here may not be typical).

Molecule | H5N1 antiviral
CC(=O)N1CCN(c2ccc(Oc3nnnn3-c3ccccc3)cc2)CC1 | i
Oc1ccc2ccccc2c1CNc1cnc2ccccc2c1 | i
CCC(=O)Nc1ccc2c(c1)ncn2-c1ccccc1OC | 0.4
CCOc1ccccc1-c1nc(-c2cccc(Br)c2)no1 | i
O=C(NCc1ccc(F)cc1Cl)C1CCN(S(=O)(=O)N2CCC3(CC2)OCCO3)CC1 | i
CC(C)Oc1ccccc1C1CC(=O)Nc2c1c(=O)n(C)c(=O)n2C (stereo unspecified) | 0.9
Cc1ccsc1/C=C/c1ccc2ccccc2n1 | i
Cc1c(Cl)cccc1NC(=S)NN1CCOCC1 | i
O=C(O)c1nn(-c2ccccc2)ccc1=O | 0.4
Cc1ccc(-c2csc(N(Cc3ccco3)C(=O)c3cccs3)n2)cc1 | i
COc1ccccc1N(C(=O)c1ccco1)C(C(=O)NC1CCCC1)c1cccnc1 (stereo unspecified) | 2.0
Cc1ccccc1CS(=O)(=O)c1nnc([C@H](CC(C)C)NC(=O)OC(C)(C)C)o1 | 0.7
O=C(c1cccc(C(=O)N2CCN(c3ccccc3F)CC2)n1)N1CCN(c2ccccc2F)CC1 | 1.3
CCOc1ccc2nc(SCC(=O)N3CCN(C(=O)c4ccco4)CC3)sc2c1 | i
N#CCC(=N)N1CCN(c2ccc(Cl)cc2)CC1 | i
COCCNC(=S)NCCCNc1nc2cc3c(cc2cc1C#N)OCO3 | 1.2
COC(=O)c1ccccc1OCCCOc1ccc(C)cc1OC | 0.6
O=C(Nc1ccc(F)cc1)N(Cc1ccco1)Cc1cc2cc3c(cc2[nH]c1=O)OCO3 | 1.3
Cc1cccc(NC(=O)CSCc2c(C)noc2C)c1C | 1.4
CN(c1ccc(C(=O)O)cc1)S(=O)(=O)c1ccccc1 | i
Cc1ccc(S(=O)(=O)/N=C(\N)Nc2nc(C)c3ccc(C)cc3n2)cc1 | 0.7
O=C(CN1C(=O)C2CC=CCC2C1=O)Nc1ccc(S(=O)(=O)NC2=NCCCCC2)cc1 (stereo unspecified) | i
CC(=O)Oc1ccc2c(C)c(CC(C)O)c(=O)oc2c1 (stereo unspecified) | 0.2
CCOc1ccc(N(CC(=O)NC2CCCCCC2)S(=O)(=O)c2c(C)[nH]c(=O)[nH]c2=O)cc1 | 0.2
C=CCNC(=O)C12CC3CC(C1)CC(C(=O)NCC=C)(C3)C2 | i
O=c1[nH]nc(CNc2ccc(O)cc2)c2ccccc12 | 1.1
CCOC(=O)C1CCN(S(=O)(=O)c2cccc(-c3cn4ccccc4n3)c2)CC1 | 2.4
CS(=O)(=O)N1N=C(c2ccc(Br)cc2)CC1c1cccs1 (stereo unspecified) | 0.4
O=C(O)c1ccc2c(c1)C(=O)N(C(Cc1ccccc1)C(=O)O)C2=O (stereo unspecified) | i
Cn1cc(C(=O)c2ccccc2)cc1-c1nc2ccccc2n1C | 1.8
Cc1cccc(C)c1NC1=NCCCS1 | i
COc1ccc(C(=O)OC(C(=O)c2ccccc2)c2ccccc2)cc1 (stereo unspecified) | i
COc1ccc(NC(=O)CN2C(=O)C(C)Oc3ccccc32)cc1 (stereo unspecified) | 0.9
Cc1ccc(S(=O)(=O)n2cnc3cc([N+](=O)[O-])ccc32)cc1C | i
N#CCCN(CCC#N)c1nncs1 | i
Cc1cc(C)c(C#N)c(SCCS(=O)(=O)c2ccc(C(C)(C)C)cc2)n1 | 0.4
CCCCN1CCc2c1nc1ccc(Br)cc1c2N | i
CCC(=O)Nc1ccc(N2CCCCC2)c(C(=O)Nc2ccccc2C)c1 | i
Oc1ccc(Br)cc1-c1cc(-c2ccc(Cl)cc2)n[nH]1 | 15
CCC(=NCc1ccco1)c1c(O)n(-c2ccc(C)cc2)c(=O)[nH]c1=O | i
COc1ccc(NC(=O)CSc2nnc(-c3ccccc3)n2Cc2ccco2)c(OC)c1 | 0.4
O=C(NC1(C(F)(F)F)NC(=O)N(Cc2cccnc2)C1=O)c1ccc(F)cc1 (stereo unspecified) | 1.1
COC(=O)c1nn(-c2ccccc2)c(Sc2ccc(OC)cc2)c1/C=N/O | i
Cc1noc(C)c1S(=O)(=O)N1CCC(C(=O)N2CCN(C3CCCC3)CC2)CC1 | 0.9
COC(=O)c1ccc(COC(=O)c2ccc(N(C)C)cc2)cc1 | i
COc1ccc(-c2nn(-c3ccccc3)cc2/C=N/NS(=O)(=O)c2ccccc2)cc1 | 0.5
Cc1cccc(C)c1OCc1nnc(SCC(=O)Nc2nccs2)n1-c1ccccc1 | i
CC(NC(=O)Cn1c(NCCO)nc2ccccc21)c1ccccc1 (stereo unspecified) | i
COc1ccnc(N=CNOCc2cccc(Cl)c2Cl)c1C#N | i
COc1ccc(N(CC(=O)N2CCC(C)CC2)S(=O)(=O)c2c(C)nn(C)c2C)cc1 | 0.9
O=C(Nc1ccc(S(=O)(=O)N2CCCC2)cc1Cl)C1=COCCO1 | 0.1
Cc1cc(C)c(C#N)c(SCC(=O)c2cc(C)n(CCc3ccccc3)c2C)n1 | 0.9
O=C(NCc1ccco1)C1CCN(C(=O)c2cc3sccc3n2Cc2ccc(Cl)cc2)CC1 | 4.9
CCCCOC(=O)Nc1nnc(CCc2ccccc2)s1 | 0.2
CCOC(=O)Cc1nnc(NC(=O)c2cccc(OCC)c2)s1 | 1.0
O=C(NCC1CCCO1)C1CCCN(Cc2cnn(-c3ccccc3)c2-n2cccc2)C1 (stereo unspecified) | 0.1
CC(=O)N1CCN(C(C)=O)C1c1ccccc1 | 0.8
CNC(=O)CSc1nc2c(c(=O)n(C)c(=O)n2C)n1Cc1ccc(C)cc1 | 0.5
O=[N+]([O-])c1ccc(N2CCCCC2)cc1N1CCOCC1 | 1.8
CC(Sc1nnnn1-c1ccccc1)C(=O)Nc1ccc(Cl)cn1 (stereo unspecified) | 0.4

The results go on:
Molecule | H5N1 antiviral
Cc1cccc(N2CCN(C(=O)CCCOc3ccccc3)CC2)c1C | 1.5
CC(=O)c1cc(C)ccc1OC(=O)c1ccco1 | i
Cc1cc(C)cc(N(C(C)C(=O)NCCC2=CCCCC2)S(C)(=O)=O)c1 (stereo unspecified) | 1.4
Clc1ccc(Cn2ncc3c(N4CCOCC4)ncnc32)cc1 | i
Cc1ccc(CCN2CC(C(=O)O)CC2=O)cc1 (stereo unspecified) | 1.1
CCN(CC)S(=O)(=O)c1ccc(C(=O)NCc2n[nH]c(=S)n2-c2ccccc2OC)cc1 | 1.1
COc1cc(C(=O)N2CCC(NC(=O)C(Cc3ccccc3C)NC(C)=O)CC2)cc(OC)c1OC (stereo unspecified) | 0.3
NC(=O)Cn1cnc(-c2ccccc2)c1 | i
CCOC(=O)CNC(=O)CSc1nc2cccnc2n1C1CCCCC1 | i
COc1ccc(C)cc1-n1nnnc1SC/C(O)=C(\C#N)c1nc2ccccc2[nH]1 | 2.1
CCOc1ccccc1-n1nnnc1SCC(=O)NC(=O)Nc1ccc2c(c1)OCCO2 | i
Fc1ccccc1CSc1nc2ncccc2[nH]1 | i
C/C(=C\C(=O)Nc1cc(C)on1)c1ccccc1 | 1.0
CCOC(=O)N1CCN(C(=O)c2ccccc2CCc2ccccc2)CC1 | 1.1
O=C1CC(c2ccccc2)=Nc2ccccc2N1 | 1.5
CN1CCN(c2ccccc2NC(=O)COc2ccc(Br)cc2)CC1 | i
Cc1cccc2cc(CN(Cc3ccc(F)cc3)C(=O)N(C)C)c3nnnn3c12 | i
CC(=O)Nc1ccc(OCC(O)Cn2c3ccccc3c3ccccc32)c(C)c1 (stereo unspecified) | i
Nc1ccc2oc3ccc(N)cc3c(=O)c2c1 | i
CCOc1cc(CNCCc2ccc(S(N)(=O)=O)cc2)cc(Cl)c1OCc1ccccc1 | i
CC(C)Nc1ncnc2c1cnn2-c1ccc(Cl)cc1 | 2.4
COc1ccc(OC)c(CN2CCN(c3ccccc3OC)CC2)c1 | i
COc1ccc(C2C(C(=O)Nc3ccccc3OC)=C(C)Nc3ncnn32)cc1 (stereo unspecified) | 0.3
CCCCN1Cc2cc(C(=O)c3cc(OC)ccc3O)cnc2NC1=O | i
O=c1[nH]n(-c2ccccc2)c(=O)c2ccccc12 | i
COc1ccc2cc(C3(C)NC(=O)N(CC(=O)NCCC4=CCCCC4)C3=O)ccc2c1 (stereo unspecified) | 2.7
CCc1ccccc1NC(=O)CN(c1cccc(OC)c1)S(C)(=O)=O | 2.2
CCC1(C(=O)OC)NC(c2ccco2)C2C(=O)N(c3ccc(C)cc3)C(=O)C21 (stereo unspecified) | i
CCN(CC)CCNC(=O)c1c(O)c2c([nH]c1=O)CCCC2 | i
N#CC1=C(N)Oc2n[nH]c(-c3ccc(F)cc3)c2C1c1cccnc1 (stereo unspecified) | i
O=C(NCCCN1CCN(C2CCCCC2)CC1)Nc1ccccc1C(F)(F)F | i
CN(C)S(=O)(=O)N1CCC(C(=O)O)(c2ccccc2)CC1 | 1.7
CCCCC1CCC(c2nc(-c3ccccn3)no2)CC1 (stereo unspecified) | i
COc1ccc2nc(NC(=O)C(NS(=O)(=O)c3cccs3)C(C)C)sc2c1 (stereo unspecified) | 0.1
COc1cccc(-c2csc(NC(C)=O)n2)c1 | i
O=S(=O)(c1cccc(-c2nnc(SCc3ccc(Cl)cc3)o2)c1)N1CCCCC1 | 0.6
CCS(=O)(=O)N1CCN(C(=O)c2cccs2)CC1 | i
CSc1nnc(-c2cc3ccccc3cc2O)n1C | i
Nn1c(CSc2nc3ccccc3o2)nnc1CSc1nc2ccccc2o1 | i
Cc1cc2cc(CNS(=O)(=O)c3ccc4ccccc4c3)ccc2n1C | 2.1
Cc1cc(C)n(C(=O)Cc2cn3ccsc3n2)n1 | i
COc1cc(C(=O)NCCC(=O)NCCN2CCCCCC2)cc(OC)c1OC | 1.3
COc1ccc(C(C(O)C(=O)c2c[nH]c3ccccc23)N2CCN(c3ccc(OC)cc3)CC2)cc1 (stereo unspecified) | i
COc1ccc(S(=O)(=O)N2CCN(C(=O)c3cccs3)CC2)cc1 | 1.9
CCOC(=O)CSC1=C(C#N)C(c2ccc(F)cc2)C(C(C)=O)=C(C)N1 (stereo unspecified) | 0.7
Brc1ccc2c(c1)C(c1cccs1)=NNC(c1cccnc1)=N2 | i
Cc1ccc(-c2nc(=S)c3c(n2Cc2ccco2)CCCC3)cc1 | i
O=C(Cc1ccc(Cl)cc1)Nc1ccc(N2CCCC2)cc1 | i
CCN1C(=O)c2cccc3c(S(=O)(=O)Nc4ccncc4)ccc1c23 | 0.3
COc1ccccc1NC(=O)c1oc2ccccc2c1NC(=O)c1ccco1 | 0.2
NC1=NC2(CCCCC2)n2c(nc3ccccc32)N1 | i
O=C(CSc1nc2ccc([N+](=O)[O-])cc2[nH]1)NC1CCCCC1 | i
COCCn1c(=O)[nH]c2cc(C(=O)NC3CCCCCC3)ccc2c1=O | i
O=C(CSc1nnc(COc2ccc(Cl)cc2)o1)N1c2ccccc2CCc2ccccc21 | i
C=CCSC1=N/C(=C\c2ccsc2)C(=O)S1 | 1.1
Cc1oc(/N=C/c2ccc(Cl)cc2)c(C#N)c1C | i
COCCCN1C(=O)C(=O)/C(=C(/O)c2ccc(OC)cc2C)C1c1cccnc1 (stereo unspecified) | i
COCCOC(=O)C1=C(N)Oc2c(oc(CO)cc2=O)C1c1ccccc1F (stereo unspecified) | 2.0
COc1cccc(C(=O)Nc2ccc3nc(N4CCOCC4)cc(C)c3c2)c1 | i
CN(CC(=O)NCCN1CCCCCC1)S(=O)(=O)c1cccc2nsnc12 | 0.9

(further entries)
Molecule | H5N1 antiviral
Cc1cc(Br)ccc1SCC(=O)OCC(=O)N1CCN(C(=O)c2ccco2)CC1 | 0.1
CCN(CC)S(=O)(=O)c1ccc(NC(=O)COC(=O)c2ccc(-n3nc(C)cc3C)cc2)cc1 | 1.5
Cc1cc(C)nc(Sc2ccc(/C=C(\C#N)C(=O)Nc3ccccc3)o2)n1 | i
O=C(Nc1ccccc1)c1nnn(Cc2ccccc2)c1NC(=O)C(F)(F)F | i
Cc1c(NC(=S)NC(=O)Cc2ccccc2)cccc1C(=O)O | 1.2
CSc1ncc(C(=O)O)c(C)n1 | i
CC(=O)C1=C(C)NC(SCC(N)=O)=C(C#N)C1c1cccnc1 (stereo unspecified) | i
Cc1cc(C)c(NC(=O)C(C)Sc2nc3ccc(N4C(=O)c5ccccc5C4=O)cc3s2)c(C)c1 (stereo unspecified) | i
Cc1ccc(CCNC(=O)C2CCC(CNc3c(N4CCCC4)c(=O)c3=O)CC2)cc1 (stereo unspecified) | 1.6
CCCC(C)C1C(C#N)=C(N)Oc2c1c(=O)oc1ccccc21 (stereo unspecified) | 0.2
O=C(CSc1nnnn1C1CCCC1)Nc1ccc2c(c1)OCO2 | i
CCCSc1nc(SCC(=O)NCc2ccccc2)c2c3c(sc2n1)COC(C)(CC)C3 (stereo unspecified) | 2.5
COc1cccc(NC(=O)CN2CCN(c3ccccc3F)CC2)c1 | i
